Screens deposited in PubChem by several laboratories.
Vif A3G – HIV-1 Vif–A3G interaction blockers – biochemical, TR-FRET, GST-Vif 1-94, biotin-A3G peptide, dose response retest, primary screen (AID 1117319); TR-FRET GST-Vif / biotin-A3G peptide binding; higher % means a stronger effect; test concentration not given here; strong numbers were not always called active; one-dose inhibition, %; IC50 in µM for titrated hits; 260,000 compounds, 0.57% hits;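 active means above the screen mean plus three standard deviations and confirmed in dose response; inconclusive means results disagree or hit not tested in dose response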;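 further: Vif residues 1-94 fused to GST binding biotinylated APOBEC3G peptide 110-148; 0% = full assay without inhibitor and 100% = GST in place of GST-Vif; retest series ran down from 100 µM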
HNF4A DNA FP – change in binding of human HNF4 alpha to DNA; P41235; HNF4a-FITC DNA binding, fluorescence polarization, 1 h; activity change, % at 10 µM; 360,000 compounds, 0.3% hits; AID 1224865; in the data active means activity change above about 30%, passing the limit was not always enough;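 further: controls were the assay level and a saturating level of protein; the project sought stronger binding though the title names inhibitors; some compounds called inactive have numbers as strong as hits; positive values seem to mean higher polarization but the record does not say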
Target sequence (P41235 whole entry, looked up): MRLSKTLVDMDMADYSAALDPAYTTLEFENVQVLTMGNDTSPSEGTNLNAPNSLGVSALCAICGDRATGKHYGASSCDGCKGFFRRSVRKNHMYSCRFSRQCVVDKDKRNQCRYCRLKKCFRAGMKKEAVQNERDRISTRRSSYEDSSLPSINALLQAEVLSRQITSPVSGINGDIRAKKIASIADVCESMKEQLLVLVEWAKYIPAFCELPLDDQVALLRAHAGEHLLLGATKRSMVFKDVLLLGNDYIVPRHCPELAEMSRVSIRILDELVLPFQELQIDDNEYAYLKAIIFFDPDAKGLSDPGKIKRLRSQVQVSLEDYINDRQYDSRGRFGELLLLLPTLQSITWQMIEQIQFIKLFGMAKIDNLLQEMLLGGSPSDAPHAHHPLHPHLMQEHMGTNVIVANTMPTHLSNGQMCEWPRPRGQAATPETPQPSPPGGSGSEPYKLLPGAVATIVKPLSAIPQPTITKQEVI
LANA-H2B inh – blocks KSHV LANA binding to histone H2A/H2B. cell-free LANA-H2A/H2B peptide, fluorescence polarization. 320,000 compounds, 0.6% hits. inhibition, % (concentration not given with the values); in the data active means inhibition mostly above about 10%, no sharp cut-off; inactive means mostly below about 6.7%;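 further: stock transfer was 7.5 nL into about 10 µL; 0% = median of vehicle wells and 100% = median of positive control wells; one replicate is shown; the record names a cut of 25% in any replicate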
B2AR ag – agonists of human beta-2 adrenergic receptor inducing internalization; response, % (concentration not given with the values); P07550; Am2.2-beta2AR cells, FAP receptor internalization, flow cytometry; reference of the scale not given here; 340,000 compounds, 0.43% hits;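 active means response above a set limit, near 3 SD of response in nonfluorescent compounds, cut at about 42% in these data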;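 further: stock transfer was 100 nL into about 11 µL; a reference agonist was the positive control; negative values mostly stem from fluorescent compounds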
Target sequence (P07550 whole entry, looked up): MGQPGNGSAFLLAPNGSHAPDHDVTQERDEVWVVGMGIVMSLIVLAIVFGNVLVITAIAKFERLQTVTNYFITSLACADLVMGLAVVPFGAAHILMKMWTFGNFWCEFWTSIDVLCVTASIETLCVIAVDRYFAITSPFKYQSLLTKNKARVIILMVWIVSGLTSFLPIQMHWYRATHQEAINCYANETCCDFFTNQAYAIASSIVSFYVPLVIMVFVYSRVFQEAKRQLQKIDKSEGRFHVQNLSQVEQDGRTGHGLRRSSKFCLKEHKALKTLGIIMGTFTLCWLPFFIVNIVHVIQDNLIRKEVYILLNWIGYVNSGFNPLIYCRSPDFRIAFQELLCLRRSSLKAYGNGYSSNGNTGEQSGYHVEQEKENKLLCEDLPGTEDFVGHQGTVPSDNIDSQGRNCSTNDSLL
Calb FLC – affects C. albicans growth with fluconazole; C. albicans CaCi-2 (fluconazole-resistant clinical isolate) + fluconazole, Alamar Blue growth, 48 h; growth inhibition, % (no concentration beside the values); 300,000 compounds, 0.57% hits; AID 1979;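 active means most replicates above 75%; inconclusive means exactly half above 75%; inactive means most below 75%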;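 further: all wells also contain fluconazole at 8 µg/ml as a sub-toxic cotreatment; 0% = median of DMSO wells and 100% = median of geldanamycin control wells; wells of about 8 µL received 7.5 nL stock; the first replicate is given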
ALR inh – human ALR oxidase inhibition via reduced H2O2; purified ALR, DTT oxidation, H2O2 HRP-luminol luminescence; AID 485317; 290,000 compounds, 3.8% hits; inhibition, % (test concentration not listed);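 active means mean and each replicate at 75% or more; inconclusive means only one of the two met; inactive means neither met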;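 further: stock transfer was 7.5 nL into about 7.5 µL; 0% = neutral wells and 100% = wells with inactivated enzyme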
Target sequence (P55789 whole entry, looked up): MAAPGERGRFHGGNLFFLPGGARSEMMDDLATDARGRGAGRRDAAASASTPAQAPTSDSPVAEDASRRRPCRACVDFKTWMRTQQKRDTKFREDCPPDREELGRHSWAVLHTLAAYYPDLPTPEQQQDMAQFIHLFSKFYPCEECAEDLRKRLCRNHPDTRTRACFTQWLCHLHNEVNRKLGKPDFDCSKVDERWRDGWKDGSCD
RanGTP-Imp inh – inhibitors of RanGTP-importin-beta interaction, primary screen, biochemical, FRET, CFP-Ran, YFP-importin-beta, homogeneous | 300,000 compounds, 1.1% hits | cell-free CFP-Ran/YFP-importin-beta FRET ratio | inhibition, % (concentration not given with the values);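 active means most replicates above 15%; inconclusive means exactly half above 15%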;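 further: 0% = DMSO wells and 100% = Ran loaded with GDP instead of GTP; wells of about 40 µL received 100 nL stock; the first replicate is given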
* = called active by the depositor; ? = inconclusive; nt = no result given.

SMILES | Vif A3G | HNF4A DNA FP | LANA-H2B inh | B2AR ag | Calb FLC | ALR inh | RanGTP-Imp inh
Cc1cc(C)nc(N2N=C(C(F)(F)F)CC2=O)n1 | nt | 0.6 | 0.3 | -1 | 3 | -1 | -0.1
COc1ccc2c(c1)c(N=O)c(O)n2C | 10% | -0.8 | 0.2 | -3 | -15 | 2 | 3.7
CCn1ccc2c(OCC(=O)NCCc3ccc(OC)c(OC)c3)cccc2c1=O | 3% | -33 | 3.2 | 7 | -4 | -4 | -3.2
Cc1cccc(C(O)(C(=O)NNc2ccc3ccccc3n2)c2cccc(C)c2)c1 | 27% | -1.6 | -2.5 | -6 | -4 | 5 | 1.8
O=C(Nc1ccccc1C(=O)N1CCOCC1)c1ccc(Br)cc1 | 1% | 0.0 | -2.1 | -9 | -5 | -12 | 2.0
CC(C)c1nnc(NC(=O)c2cccc(-n3cnnn3)c2)s1 | -2% | 0.2 | 2.9 | -5 | -26 | 2 | -0.4
CCc1ccc(NC(=O)COC(=O)CCc2nc3cc(S(=O)(=O)N(CC)CC)ccc3n2C)cc1 | 75% | 0.1 | -3.4 | -6 | 2 | 99* | 4.7
Cc1noc(NS(=O)(=O)c2ccc(NC(=O)CSc3nc4c(cc3C#N)CCCC4)cc2)c1C | 2% | 0.1 | 0.4 | 4 | 0 | 95* | -0.4
O=C(Nc1cccc([N+](=O)[O-])c1)c1cccc(C(=O)Nc2cccc([N+](=O)[O-])c2)c1 | nt | -5.1 | -0.4 | 0 | 3 | nt | 1.3
CC1(C)CC(=O)C(C=NCCN2CCN(C(=O)NC34CC5CC(CC(C5)C3)C4)CC2)=C(O)C1 | -3% | -4.1 | nt | -11 | 19 | nt | 0.3
CCOc1ccccc1NC(=O)COC(=O)Cc1ccsc1 | -8% | 3.0 | nt | -4 | nt | nt | nt
O=C(N/N=C/c1cccnc1)c1ccc(O)cc1 | nt | -0.9 | 0.6 | -1 | 12 | 3 | 2.6
COc1ccccc1C(=O)Nc1ccon1 | -6% | -1.6 | 1.4 | 3 | -13 | -3 | -6.7
O=C(Nc1ccc(N2CCOCC2)cc1)c1cc(-n2cnnc2)ccc1Cl | nt | -4.3 | 2.9 | -4 | -9 | 72 | 1.2
O=C(O)C1CCCN(S(=O)(=O)c2ccc(Br)cc2)C1 (stereo not given) | -1% | 6.1 | -0.4 | 3 | ? | 2 | -4.8
CN1c2ccccc2Sc2cc(N)ccc21 | ? | 2.9 | -5.3 | 15 | -6 | 95* | -4.9
Cc1cccc(N2CCN(C(=O)CCNS(=O)(=O)c3ccc4c(c3)oc(=O)n4C)CC2C)c1 (stereo not given) | 1% | 4.8 | 8.0 | 3 | 7 | 68 | -0.4
O=C(CCSc1nnc(-c2ccncc2)o1)Nc1ccccc1Cl | ? | -1.9 | 6.1 | 2 | -15 | 1 | -3.3
Cn1c(N)c(C(=O)CSc2nnc(C3CC3)n2-c2ccccc2)c(=O)[nH]c1=O | 1% | 5.0 | 4.0 | -5 | nt | 0 | nt
CCOC(=O)CSc1nnc(CNC(=O)c2cccc(C)c2)n1C | nt | 1.4 | 6.1 | -1 | 2 | -17 | 1.2
CSc1nc(O)c(C(c2ccc(F)cc2)c2c(O)nc(SC)[nH]c2=O)c(=O)[nH]1 | nt | 2.1 | 3.1 | -1 | -3 | 3 | 0.7
CCN(CC(=O)Nc1c(F)cccc1F)C(=O)CCSc1ccc(F)cc1 | -1% | 2.8 | 2.0 | -2 | -1 | -3 | -1.2
O=C(CN1CCCCC1)NC(=O)NC1CCCCC1 | nt | -3.4 | 4.2 | -4 | nt | -5 | nt
CCOc1cc(C(=O)CCC(=O)OCC(=O)NC(=O)NCC(C)C)ccc1O | ? | 2.8 | -1.3 | 0 | -5 | 39 | ?
CCC1(c2ccccc2)NC(=O)N(CC(=O)Nc2ccc(Cl)c(S(=O)(=O)N3CCCCC3)c2)C1=O (stereo not given) | 1% | 2.9 | 2.1 | 11 | -3 | -3 | -1.5
CCOC(=O)c1ccc(Nc2nc(C(=O)OCC)nc3ccccc23)cc1 | -4% | 1.1 | -3.5 | -7 | 0 | 2 | 2.0
Cc1cc(C)n(CC(=O)NC2CCCCC2)n1 | 8% | -2.4 | 3.4 | 1 | -3 | -3 | 4.7
CCOc1ccc(CN(C)C(=O)[C@H](C)NC(=O)c2ccco2)cc1OC | nt | -0.5 | 1.8 | -13 | 3 | 1 | 0.3
CCOC(=O)C1(Cc2cccc(Cl)c2)CCCN(C(=O)c2c(CC)noc2C)C1 (stereo not given) | nt | 0.2 | -4.2 | -2 | 5 | 41 | 1.6
CC(Sc1ccccc1)C(=O)N/N=C/c1ccccc1 (stereo not given) | nt | -0.1 | 3.8 | 5 | -5 | -4 | -1.8
COCCNCCCCOc1c(Cl)cc(C)cc1Br | 0% | 2.6 | 0.8 | 6 | -25 | -2 | -1.8
CC1CC(C)CN(CCCNC(=O)c2ccc3c(c2)ncn3C2CCCC2)C1 (stereo not given) | nt | -0.6 | -2.7 | -9 | 46 | -1 | -0.9
CC(C)(C)c1cc(Cl)ccc1OCCn1ccnc1 | 6% | -2.0 | -4.6 | -2 | -9 | 4 | 1.0
Cc1ccc2cccc(O)c2[n+]1[O-] | 19% | -3.5 | -1.8 | 0 | 20 | -23 | -2.6
CCC1(c2ccccc2)NC(=O)N(CC(=O)NC2CCCCCC2)C1=O (stereo not given) | nt | 3.7 | -1.2 | -1 | nt | -4 | nt
Cn1c(Nc2ccccc2)nc2ccccc21 | nt | -0.1 | 2.0 | -12 | -7 | 15 | -5.9
COc1cccc(OC)c1NC(=O)CN1CCC(NC(=O)c2cccc(F)c2)CC1 | -1% | 1.2 | -7.8 | 5 | -6 | nt | 2.7
O=C(N/N=C/c1cc2c(c([N+](=O)[O-])c1)OCO2)c1ccncc1 | nt | -4.3 | 0.4 | 3 | 11 | nt | 2.9
CCOC(=O)c1ccccc1NS(=O)(=O)c1c(C)nc2sccn2c1=O | nt | -3.1 | 2.7 | -9 | 0 | -4 | 4.9
Cc1cc(C)c(C#N)c(Nc2ccccc2C)n1 | -7% | 1.5 | 0.7 | -1 | 9 | -19 | 19*

Fetched one by one from the entries so far, 4 records:
SMILES | Vif A3G | HNF4A DNA FP | LANA-H2B inh | B2AR ag | Calb FLC | ALR inh | RanGTP-Imp inh
CCOc1ccccc1NC(=O)COC(=O)Cc1ccsc1 | -8% | 3.0 | nt | -4 | nt | nt | nt
COc1cccc(OC)c1NC(=O)CN1CCC(NC(=O)c2cccc(F)c2)CC1 | -1% | 1.2 | -7.8 | 5 | -6 | nt | 2.7
CC(C)c1nnc(NC(=O)c2cccc(-n3cnnn3)c2)s1 | -2% | 0.2 | 2.9 | -5 | -26 | 2 | -0.4
Cc1ccc2cccc(O)c2[n+]1[O-] | 19% | -3.5 | -1.8 | 0 | 20 | -23 | -2.6

Carrying on:
SMILES | Vif A3G | HNF4A DNA FP | LANA-H2B inh | B2AR ag | Calb FLC | ALR inh | RanGTP-Imp inh
c1ccc(Cc2nnc3sc(-c4ccco4)nn23)cc1 | 18% | -9.6 | 0.9 | -12 | -2 | -4 | ?
O=C(Cc1ccccc1)NC1CCN(Cc2ccccc2)CC1 | -4% | -0.8 | 7.1 | -5 | -14 | -5 | -0.9
CCN(CC)c1nc(Nc2ccc([N+](=O)[O-])cc2)nc(N(CC)CC)n1 | nt | -0.9 | -2.3 | 26 | 2 | -3 | -0.2
CCOC(=O)c1cccc(NC(=O)c2ccccc2C)c1 | -7% | -0.9 | -0.9 | 7 | 10 | -1 | -0.4
Cc1cccc(C)c1NC(=O)CCn1cnc2ccccc2c1=O | 3% | -1.8 | 5.9 | 1 | 1 | -3 | -0.2
CC(C)(C)C(=O)Nc1nnc(-c2ccncc2)o1 | nt | 4.6 | 2.2 | 1 | -15 | 2 | -2.5
CC1Sc2ccc(S(=O)(=O)CCC(=O)N3CCN(c4cccc(Cl)c4)CC3)cc2NC1=O (stereo not given) | nt | -69 | 30* | -2 | -2 | -3 | 1.5
O=C(NN=C1CCCC1)c1ccccc1OCc1ccc(Cl)cc1 | nt | 2.5 | -6.3 | -8 | -7 | -24 | ?
CCCNC(=O)Cn1c(=O)oc2cc(S(=O)(=O)N3CCCC3)ccc21 | nt | 1.8 | 1.9 | 2 | 0 | -5 | -0.3
CCOC(=O)C1=C(CS(=O)(=O)c2ccc(F)cc2)NC(=O)NC1c1ccc(O)c(O)c1 (stereo not given) | nt | 0.6 | -0.1 | -1 | -9 | 30 | -2.9
COc1ccccc1CNC(=O)C1CCN(S(=O)(=O)c2cccc([N+](=O)[O-])c2)CC1 | nt | -1.1 | 18 | -4 | 2 | -8 | -1.0
CC1CCN(C(=O)c2ncn(C)c2C(=O)N2CCC(C)CC2)CC1 | nt | 0.3 | -1.5 | -2 | nt | -12 | nt
CCCCC(=O)Nc1ccc(S(=O)(=O)N2CCCCC2c2cccnc2)cc1 (stereo not given) | nt | -4.3 | 3.4 | 129* | -5 | -1 | -1.9
COC(=O)c1cccc(NC(=O)COc2cccc([N+](=O)[O-])c2)c1 | 2% | -2.9 | 1.7 | 1 | 7 | -2 | 2.4
Nc1ncnc2c1ncn2CCOc1ccccc1 | -4% | -1.9 | 0.7 | 3 | 2 | nt | 1.8
Cc1cc(C)c(C)c(S(=O)(=O)Nc2cccc(S(=O)(=O)Nc3ccccc3C(=O)O)c2)c1C | 4% | -5.1 | -3.8 | 3 | nt | 13 | nt
COc1cc(/C=C(\C#N)C(=O)NCC2CCCO2)cc(OC)c1OC (stereo not given) | 9% | -0.1 | 0.1 | 0 | -6 | 6 | -2.0
COc1ccc(CNC(=O)Cn2nc([N+](=O)[O-])cc2C)cc1 | -4% | 0.9 | -1.7 | 11 | -2 | -15 | -2.4
O=C(Nc1ccc(Br)cc1)C1CCC(=O)N1Cc1ccccc1Cl (stereo not given) | -5% | 4.0 | 1.6 | -2 | -2 | 1 | -0.5
CCOC(=O)C1CCCN(Cc2nc(N)nc(Nc3ccc(OC)cc3)n2)C1 (stereo not given) | 1% | -1.2 | 4.2 | -2 | 14 | -9 | 4.9

Taken from above.
HNF4A DNA FP, CCCCC(=O)Nc1ccc(S(=O)(=O)N2CCCCC2c2cccnc2)cc1 (stereo not given) : -4.3
RanGTP-Imp inh, COc1ccc(CNC(=O)Cn2nc([N+](=O)[O-])cc2C)cc1 : -2.4
LANA-H2B inh, CCOC(=O)C1CCCN(Cc2nc(N)nc(Nc3ccc(OC)cc3)n2)C1 (stereo not given) : 4.2

(listing goes on)
SMILES | Vif A3G | HNF4A DNA FP | LANA-H2B inh | B2AR ag | Calb FLC | ALR inh | RanGTP-Imp inh
Cc1nn(C)c(C)c1CN(C(=O)C1CCC(=O)N(C2CCCCCC2)C1)C(C)C (stereo not given) | nt | -1.8 | 1.5 | -1 | -25 | -3 | -0.6
Cc1c(/C=N\NC(=O)C2(C)CC2(Cl)Cl)cnn1C (stereo not given) | -3% | -1.3 | 1.4 | 0 | -5 | 3 | 0.3
Clc1c(-c2ccccc2)nc2ccccn12 | 17% | 0.2 | 3.5 | 8 | -18 | 0 | -0.6
Cc1ccc(-c2nc(CS(=O)CC(=O)NC3CCC(C)CC3)c(C)o2)cc1 (stereo not given) | -2% | 9.7 | -0.6 | -11 | 0 | 99* | 2.7
Cc1nnsc1-c1onc(C)c1C(=O)O/N=C/c1ccc(Cl)cc1 | -11% | -0.7 | 2.0 | 1 | 9 | nt | -1.4
Clc1ccc(Oc2nc(N3CCOCC3)nc(N3CCOCC3)n2)c(C2CCCCC2)c1 | -4% | -2.9 | 0.6 | 6 | -3 | 0 | 0.8
COc1cc2c(cc1OC)C(NC(=O)c1ccc(C)cc1)CC2=O (stereo not given) | -1% | -1.3 | 3.7 | -2 | 3 | -4 | -2.6
